Compound activity from PubChem BioAssay.
Ecoli WT expand = growth inhibitors of wild-type E. coli, primary screen, strain BW25113, expanded library, OD600; 98,000 compounds, 0.15% hits; growth inhibition, % at 100 µM; OD600 absorbance;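 active = growth inhibition above about 50% at one test dose, limit read from the data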;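 also: growth measured after 20 h incubation at 37 °C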
FAK inh = FAK kinase inhibitors, primary screen, biochemical; Focal adhesion kinase 1 (Homo sapiens), Q05397; biochemical FAK kinase activity assay; inhibition, %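 (tested at 7 µM)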; 97,000 compounds, 0.84% hits; in the data active = inhibition above about 19%;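 also: 0% = DMSO and 100% = reference compound high control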
Target sequence (Q05397 whole entry, looked up): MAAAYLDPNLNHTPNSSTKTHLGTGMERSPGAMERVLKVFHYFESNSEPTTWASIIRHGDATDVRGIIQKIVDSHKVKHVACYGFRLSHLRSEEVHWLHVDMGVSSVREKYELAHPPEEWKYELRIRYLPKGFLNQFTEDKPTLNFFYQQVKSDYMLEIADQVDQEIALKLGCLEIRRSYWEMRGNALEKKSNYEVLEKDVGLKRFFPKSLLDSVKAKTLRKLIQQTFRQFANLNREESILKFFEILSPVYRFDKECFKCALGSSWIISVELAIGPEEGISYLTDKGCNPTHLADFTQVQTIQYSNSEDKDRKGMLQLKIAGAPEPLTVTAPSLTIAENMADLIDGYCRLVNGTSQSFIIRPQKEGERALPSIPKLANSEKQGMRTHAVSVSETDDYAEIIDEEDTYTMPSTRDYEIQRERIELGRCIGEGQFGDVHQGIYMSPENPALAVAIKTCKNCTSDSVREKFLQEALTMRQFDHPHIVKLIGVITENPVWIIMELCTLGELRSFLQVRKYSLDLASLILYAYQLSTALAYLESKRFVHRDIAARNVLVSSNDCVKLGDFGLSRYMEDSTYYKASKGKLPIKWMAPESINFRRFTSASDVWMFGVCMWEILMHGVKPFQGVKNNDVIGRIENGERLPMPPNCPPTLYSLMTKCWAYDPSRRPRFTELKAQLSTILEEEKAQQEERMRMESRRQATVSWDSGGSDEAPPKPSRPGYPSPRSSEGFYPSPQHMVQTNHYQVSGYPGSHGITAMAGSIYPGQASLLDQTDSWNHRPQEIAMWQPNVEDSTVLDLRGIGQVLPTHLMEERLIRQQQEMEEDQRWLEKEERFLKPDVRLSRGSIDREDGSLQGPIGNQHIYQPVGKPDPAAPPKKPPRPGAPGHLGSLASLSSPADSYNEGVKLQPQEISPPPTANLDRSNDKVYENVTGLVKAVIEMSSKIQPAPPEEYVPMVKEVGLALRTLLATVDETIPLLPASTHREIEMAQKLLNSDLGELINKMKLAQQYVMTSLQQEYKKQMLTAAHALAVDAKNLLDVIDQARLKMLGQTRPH
Mac1 fbg enh = enhancers of CD11b/CD18 adhesion to fibrinogen, primary screen, K562 cells, luminescence | Integrin beta-2 (Homo sapiens) + Integrin alpha-M (Homo sapiens), P05107+P11215 | ATPlite luminescence | activation, % at 10 µM | 93,000 compounds, 0.07% hits | AID 1499, 2009;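 active = 10 µM primary screen giving 50% or more activity, confirmed by 40% or more on retest at that dose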; also: strong numbers were not always called active; reference of the scale not given here
MT1-MMP txn act = MT1-MMP promoter reporter activation – cell-based, luciferase luminescence, primary screen. HT1080 MT1-MMP promoter luciferase reporter, overnight; hits give high values. activation factor at 10 µM. 86,000 compounds, 0.16% hits. AID 750, 2007;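 active = activation factor of at least 2 for MT1-MMP transcription at 10 µM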
PLAP activator = PLAP enzyme activators, biochemical, luminescence, HTS; activation fold at 20 µM; 96,000 compounds, 1.2% hits; Alkaline phosphatase, placental type (Homo sapiens), P05187; purified PLAP enzyme, luminescent substrate read-out; hits give high values; in the data active = activation fold above about 2
Mac1 fbg inh = inhibitors of CD11b/CD18 adhesion to fibrinogen, primary screen, K562 cells, luminescence; ATPlite luminescence; Mn2+ added to activate the integrin; inhibition, % at 10 µM; Integrin beta-2 (Homo sapiens) + Integrin alpha-M (Homo sapiens), P05107+P11215; 93,000 compounds, 0.54% hits; AID 1497, 2009;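 active = primary inhibition of 50% or more at 10 µM, then 40% or more on retest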; also: some results filed as inactive read as strong as hits
* = called active by the depositor; . = not tested or not shown; & = joins results of further samples.

No.	SMILES	Ecoli WT expand	FAK inh	Mac1 fbg enh
1	NC(=O)c1cc[n+](CC2=C(C(=O)O)N3C(=O)[C@@H](NC(=O)C(c4ccccc4)S(=O)(=O)[O-])[C@H]3SC2)cc1 (stereo partly drawn)	.	.	.
2	CC(C)(S)[C@@H](N)C(=O)O	.	.	.
3	CCOC(=O)c1sc(NC(=O)C2CCCO2)c(C(=O)OCC)c1C (stereo not drawn)	.	.	2.3
4	COc1ccc2c(c1)c(CC(=O)O)c(C)n2C(=O)c1ccc(Cl)cc1	.	.	.
5	Cc1cc(C(=O)NNC(=S)NCc2ccco2)n(C)n1	.	-2.4	.
6	CCN(CC)CCc1c(C)[nH]c(C(=O)OCc2ccccc2)c1C	2.0	6.2	44.9
7	CC1(C)O[C@@H]2C[C@H]3[C@@H]4CCC5=CC(=O)C=C[C@]5(C)[C@@]4(F)[C@@H](O)C[C@]3(C)[C@]2(C(=O)CO)O1	.	.	.
8	O=C(COC(=O)c1cccs1)NCc1ccco1	.	.	-1.3
9	O=c1[nH]c(=O)n(C2CCCO2)cc1F (stereo not drawn)	.	.	.
10	Nc1ccc(Nc2ccccc2)cc1	25.0	-0.8	.
11	Nc1nc(Cl)nc2c1ncn2[C@H]1C[C@H](O)[C@@H](CO)O1	.	.	.
12	CN1CCC(=C2c3ccccc3C=Cc3ccccc32)CC1	.	.	.

No.	MT1-MMP txn act	PLAP activator	Mac1 fbg inh
1	1.1	.	.
2	1.2	.	.
3	1.3	1.1	8.0
4	1.2	.	.
5	1.1	.	.
6	1.2	1.5	-12.3
7	1.3	.	.
8	1.2	1.3	-8.5
9	1.1	.	.
10	1.2	0.7	.
11	0.6	.	.
12	1.2	.	.

Next section
No.	SMILES	Ecoli WT expand	FAK inh	Mac1 fbg enh
13	Oc1c(I)cc(Cl)c2cccnc12	.	.	.
14	C[N+](C)(C)CCCCCCCCCC[N+](C)(C)C	.	.	.
15	CCOC(=O)C1=C[C@]2(CC)CCCN3CCc4c(n1c1ccccc41)[C@@H]32	.	.	.
16	CC1CCc2cc(F)cc3c(=O)c(C(=O)O)cn1c23 (stereo not drawn)	.	.	.
17	Cc1ccc(S(=O)(=O)Cc2ccc(C(=O)O)o2)cc1	-14.0	5.4	-3.0
18	NS(=O)(=O)c1cc2c(cc1Cl)NC(C(Cl)Cl)NS2(=O)=O (stereo not drawn)	.	.	.
19	CN(C)[C@@H]1C(=O)C(C(N)=O)=C(O)[C@@]2(O)C(=O)C3=C(O)c4c(O)ccc(Cl)c4[C@@H](O)[C@H]3C[C@@H]12	.	.	.
20	CC(C)(C)c1n[nH]c(=S)n(N)c1=O	-6.0	-3.5	.
21	CCCCN1C[C@H](O)[C@@H](O)[C@H](O)[C@H]1CO	.	.	.
22	Brc1c(NC2=NCCN2)ccc2nccnc12	.	.	.
23	COc1ccc2c(c1OC)C(=O)OC2C1c2c(cc3c(c2OC)OCO3)CCN1C (stereo not drawn)	4.0	.	-1.4
24	NS(=O)(=O)c1cc2c(cc1C(F)(F)F)NCNS2(=O)=O	.	.	.

No.	MT1-MMP txn act	PLAP activator	Mac1 fbg inh
13	1.2	.	.
14	1	.	.
15	1.1	.	.
16	1.1	.	.
17	0.9	1.1	-7.9
18	1.1	.	.
19	1.2	.	.
20	1.1	1.4	.
21	1.2	.	.
22	1.1	.	.
23	1.2&1	1.5	14.6
24	1.1	.	.

Arranged by count of non-hydrogen atoms (rising): 11 of the compounds above.
No.	SMILES	Ecoli WT expand	FAK inh	Mac1 fbg enh
20	CC(C)(C)c1n[nH]c(=S)n(N)c1=O	-6.0	-3.5	.
10	Nc1ccc(Nc2ccccc2)cc1	25.0	-0.8	.
21	CCCCN1C[C@H](O)[C@@H](O)[C@H](O)[C@H]1CO	.	.	.
22	Brc1c(NC2=NCCN2)ccc2nccnc12	.	.	.
14	C[N+](C)(C)CCCCCCCCCC[N+](C)(C)C	.	.	.
17	Cc1ccc(S(=O)(=O)Cc2ccc(C(=O)O)o2)cc1	-14.0	5.4	-3.0
24	NS(=O)(=O)c1cc2c(cc1C(F)(F)F)NCNS2(=O)=O	.	.	.
12	CN1CCC(=C2c3ccccc3C=Cc3ccccc32)CC1	.	.	.
15	CCOC(=O)C1=C[C@]2(CC)CCCN3CCc4c(n1c1ccccc41)[C@@H]32	.	.	.
23	COc1ccc2c(c1OC)C(=O)OC2C1c2c(cc3c(c2OC)OCO3)CCN1C (stereo not drawn)	4.0	.	-1.4
19	CN(C)[C@@H]1C(=O)C(C(N)=O)=C(O)[C@@]2(O)C(=O)C3=C(O)c4c(O)ccc(Cl)c4[C@@H](O)[C@H]3C[C@@H]12	.	.	.

No.	MT1-MMP txn act	PLAP activator	Mac1 fbg inh
20	1.1	1.4	.
10	1.2	0.7	.
21	1.2	.	.
22	1.1	.	.
14	1	.	.
17	0.9	1.1	-7.9
24	1.1	.	.
12	1.2	.	.
15	1.1	.	.
23	1.2&1	1.5	14.6
19	1.2	.	.

(list continues)
No.	SMILES	Ecoli WT expand	FAK inh	Mac1 fbg enh
25	Nc1ccc(S(=O)(=O)c2ccc(N)cc2)cc1	.	.	.
26	COC(=O)Cc1c[nH]c2ccc(OCC(O)CNC(C)C)cc12 (stereo not drawn)	-14.0	.	1.3
27	Cc1cc2c(C(C)C)c(O)c(O)c(C=O)c2c(O)c1-c1c(C)cc2c(C(C)C)c(O)c(O)c(C=O)c2c1O	.	.	.
28	CNC(=O)N(c1ccccc1)c1ccccc1	-14.0	-7.9	2.0
29	Cc1c(OCC(F)(F)F)ccnc1CS(=O)c1nc2ccccc2[nH]1 (stereo not drawn)	.	.	.
30	CC1=NC(C)(C)Cc2ccccc21	-13.0	-9.1	.
31	O=C(Cc1ccc(S(=O)(=O)N2CCOCC2)s1)Nc1nc2c(s1)CCCC2	3.0	22.5*	12.7
32	C[C@@H]1C[C@H]2[C@@H]3CCC4=CC(=O)C=C[C@]4(C)[C@@]3(F)[C@@H](O)C[C@]2(C)[C@@]1(O)C(=O)COP(=O)(O)O	.	.	.
33	COc1ccccc1Oc1coc2cc(O)ccc2c1=O	0.0	-5.5	-2.2
34	COC(=O)Nc1nc2ccc(Sc3ccccc3)cc2[nH]1	.	.	.
35	CC1(C)S[C@@H]2[C@H](NC(=O)C(C(=O)O)c3ccccc3)C(=O)N2[C@H]1C(=O)O (stereo partly drawn)	.	.	.

No.	MT1-MMP txn act	PLAP activator	Mac1 fbg inh
25	1.2	.	.
26	1.1	0.8	-13.5
27	1	.	.
28	1.1	0.9	-8.0
29	1.7	.	.
30	1	1	.
31	1.3	1.2	25.3
32	1.1	.	.
33	1.3	0.9	-1.8
34	0.9	.	.
35	1.2	.	.

A portion of the library; rates above refer to the full screens.
